Ecoli rRNA inh: reduced GFP signal of wild-type E. coli, primary screen, bacterial rRNA inhibitor project, GFP/RFP fluorescence, OD600, single point | E. coli WT GFP vs humanized-ribosome RFP mutants, 24 h; hits give low values; DMSO median 0, no signal -100 | AID 720706, 2013 | GFP signal change (wild-type ribosome), % (no concentration beside the values) | actives 1.6% (n = 350,000);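 active = significant combined selectivity score with lowered wild-type GFP, culture density cut under 30%, mutant RFP and density less affected; inactive = any of these conditions unmet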; also: one replicate is shown; some compounds called inactive have numbers as strong as hits
AF4-AF9 inh: inhibitors of AF4 peptide binding to AF9, primary screen, biochemical, AlphaScreen, biotin-AF4 peptide, FLAG-AF9, single point; inhibition, % at 10 µM; Protein AF-9 (Homo sapiens), P42568; actives 0.47% (n = 350,000);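 active = every replicate reaching a set inhibition limit, whatever the replicate mean, cut at about 25% in these data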;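 also: 0% = plate neutral control median and 100% = total signal loss; the record names both 10 and 1 µM as test concentration; the first replicate is given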
Target sequence (P42568 whole entry, looked up): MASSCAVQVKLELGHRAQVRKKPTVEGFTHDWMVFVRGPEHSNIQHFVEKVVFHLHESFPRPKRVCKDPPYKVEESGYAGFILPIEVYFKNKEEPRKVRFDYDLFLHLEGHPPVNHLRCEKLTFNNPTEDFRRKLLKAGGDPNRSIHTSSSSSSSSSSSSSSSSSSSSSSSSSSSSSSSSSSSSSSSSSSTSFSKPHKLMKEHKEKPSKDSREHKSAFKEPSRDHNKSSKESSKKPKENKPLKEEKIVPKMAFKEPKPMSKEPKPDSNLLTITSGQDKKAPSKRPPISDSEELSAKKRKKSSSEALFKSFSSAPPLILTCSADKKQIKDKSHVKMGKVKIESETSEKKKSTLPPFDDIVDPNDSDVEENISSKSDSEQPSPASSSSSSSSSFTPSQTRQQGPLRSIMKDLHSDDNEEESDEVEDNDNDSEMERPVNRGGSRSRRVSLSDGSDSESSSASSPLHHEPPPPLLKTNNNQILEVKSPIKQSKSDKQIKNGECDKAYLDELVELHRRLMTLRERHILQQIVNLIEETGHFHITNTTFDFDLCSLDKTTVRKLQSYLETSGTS
Ecoli rRNA inh OD600: also measured in Ecoli rRNA inh; calls as there; OD600 change, %; measured here: OD600 growth;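 optical density of the mix in the first replicate; 0 = DMSO median and -100 = no signal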
Ecoli rRNA inh RFP: further read-out of Ecoli rRNA inh, marked with its call; RFP signal change, %; measured here: RFP humanized mutant strains;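 first replicate; 0 = DMSO median and -100 = no signal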
* hit, by the source's call; i = inactive; . = no result given; & = joins results of further samples.

SMILES	Ecoli rRNA inh	Ecoli rRNA inh OD600	Ecoli rRNA inh RFP	AF4-AF9 inh
O=C1CN(S(=O)(=O)Cc2ccccc2)C[C@H]2[C@H](c3ccc(C#Cc4cccnc4)cc3)[C@@H](CO)N12	-1.2	-10.2	0.3	-0.7
COc1ccc(C#Cc2ccc([C@H]3[C@@H](CO)N4C(=O)CN(C(=O)c5ccc(F)cc5)C[C@@H]34)cc2)cc1	5.6	-18.6	-2.8	0.5
CCC(=O)N(Cc1cc2cc(OC)ccc2[nH]c1=O)c1ccccc1OC	-4.7	-0.6	0.4	-1.8
CS(=O)(=O)Nc1ccc2c(c1)[C@@H]1C[C@H](CC(=O)O)O[C@@H](CO)[C@@H]1O2	1.3	0.8	-2.8	-2.8
O=C(C1CCCCC1)N1CC2(C1)[C@H](c1ccccc1)[C@H](CO)N2C(=O)NC1CCCC1	-2.3	-12.0	0.5	-3.5
O=C(C1CC1)N1CC(=O)N2[C@H](CO)[C@H](c3ccc(C#CC4CCCC4)cc3)[C@H]2C1	3.2	-2.4	-2.2	0.5
COc1cccc(CN2[C@@H]3CNC[C@H]2C3c2ccc(-c3cccc(OC)c3)cc2)c1 (some centres undefined)	3.1&-0.3	0.3&7.4	1.3&5.4	-2.5&1.4
C[C@H]1CN([C@@H](C)CO)S(=O)(=O)c2ccc(/C=C/c3ccccc3)cc2O[C@H]1CN(C)C(=O)c1ccc2c(c1)OCO2	-6.1	1.9	4.1	5.7
COCC(=O)Nc1ccc2c(c1)C(=O)N(C)C[C@@H](OC)[C@@H](C)CN(CCc1ccccc1)[C@@H](C)CO2	-3.3	-2.0	-0.8	5.9
NCC[C@@H]1CC[C@@H](NC(=O)C2CC2)[C@H](CO)O1	1.2	-5.7	-2.0	-2.7
CC(=O)N1[C@@H]2Cn3c(cccc3=O)[C@H]1[C@@H](C(=O)N[C@H](C)c1ccccc1)[C@@H]2CO	1.0	5.1	-0.9	-1.8
CCC(=O)N1CCCC1(C)C(=O)Nc1ccc(C)c(C)c1 (centres undefined)	9.8	8.3	1.6	-0.9
O=C(C[C@@H]1C=C[C@H](NC(=O)c2ccncc2)[C@@H](CO)O1)Nc1ccccc1	2.5	-2.8	0.2	-1.9
CCC(=O)N[C@H]1C=C[C@H](CC(=O)NCC2CC2)O[C@@H]1CO	2.1	4.0	-0.7	-3.5
CO[C@H]1CN(C)C(=O)c2ccc(NC(=O)C3CCCC3)cc2OC[C@H](C)NC[C@@H]1C	3.0	9.8	-2.9	-6.3
Cc1cccc(-c2ccc([C@H]3[C@H](CO)N4C(=O)CN(C(=O)c5cccnc5)C[C@@H]34)cc2)c1	2.0	6.2	-3.0	-0.1
N#Cc1ccc(-c2ccc([C@H]3[C@@H](CO)N4C(=O)CN(C(=O)C5CCC5)C[C@@H]34)cc2)cc1	-2.2	0.4	-0.1	-3.5
CCc1nc(N2[C@@H](C#N)[C@@H](c3ccccc3-c3ccccc3C)[C@@H]2CO)sc1C	-3.6	-7.1	-1.4	3.8
Cc1ccc(-c2ccc([C@@H]3[C@H]4CN(C(=O)c5ccncc5)CC(=O)N4[C@H]3CO)cc2)cc1	3.0	-10.1	-1.6	1.4
N#Cc1ccc(-c2ccc([C@@H]3[C@H]4CN(C(=O)C5CCC5)CC(=O)N4[C@H]3CO)cc2)cc1	-3.3	3.2	-6.8	-5.1

Some values from the entries so far.
N#Cc1ccc(-c2ccc([C@H]3[C@@H](CO)N4C(=O)CN(C(=O)C5CCC5)C[C@@H]34)cc2)cc1 in Ecoli rRNA inh is entered as -2.2
N#Cc1ccc(-c2ccc([C@@H]3[C@H]4CN(C(=O)C5CCC5)CC(=O)N4[C@H]3CO)cc2)cc1 in Ecoli rRNA inh OD600 is entered as 3.2
CC(=O)N1[C@@H]2Cn3c(cccc3=O)[C@H]1[C@@H](C(=O)N[C@H](C)c1ccccc1)[C@@H]2CO in AF4-AF9 inh is entered as -1.8
CCC(=O)N1CCCC1(C)C(=O)Nc1ccc(C)c(C)c1 (centres undefined) in Ecoli rRNA inh OD600 is entered as 8.3
CO[C@H]1CN(C)C(=O)c2ccc(NC(=O)C3CCCC3)cc2OC[C@H](C)NC[C@@H]1C in Ecoli rRNA inh RFP is entered as -2.9

Next section.
SMILES	Ecoli rRNA inh	Ecoli rRNA inh OD600	Ecoli rRNA inh RFP	AF4-AF9 inh
C[C@H]1CN([C@@H](C)CO)C(=O)c2cc(C#Cc3cccnc3)cnc2O[C@H]1CN(C)Cc1cccnc1	1.9	5.3	-1.3	-2.4
C/C=C/c1ccc2c(c1)[C@H]1[C@H](CCN1C(=O)C1CCCC1)[C@@H](CO)N2	i	.	.	8.8
O=C(Nc1ccccc1Cl)N1[C@@H]2CNC[C@H]1C2c1ccc(/C=C/c2ccccc2)cc1 (some centres undefined)	-24.0&-56.4	-66.2&-78.3	2.5&-16.1	20.0
O=C(c1ccccn1)N1CC(=O)N2[C@H](CO)[C@H](c3ccc(-c4cccc(F)c4)cc3)[C@@H]2C1	-1.0	-2.9	-1.7	-6.9
N#C[C@H]1[C@H](c2ccc(C#CC3CCCC3)cc2)[C@H](CO)N1C(=O)Cc1ccccn1	-14.2	-57.5	2.8	0.3
CCNC(=O)[C@@H]1[C@@H](CO)[C@@H]2Cn3c(cccc3=O)[C@H]1N2C(=O)Nc1cc(F)ccc1F	0.9	-0.6	1.5	-2.7
COc1ccc(C#Cc2ccc([C@H]3[C@@H](CO)N4C(=O)CN(C(=O)Nc5ccccc5F)C[C@@H]34)cc2)cc1	3.7	6.0	-1.2	-3.6
CCCN(C)C[C@@H]1OCCCC[C@H](C)Oc2ccc(NC(=O)NC3CCCCC3)cc2C(=O)N([C@@H](C)CO)C[C@@H]1C	0.8	-0.6	-1.2	5.8
Cc1noc(C)c1S(=O)(=O)N(C)C[C@H]1Oc2ccc(NC(=O)CCN3CCOCC3)cc2CC(=O)N([C@H](C)CO)C[C@@H]1C	1.8	0.5	-3.7	0.5
Cc1ccccc1S(=O)(=O)N1CC(=O)N2[C@@H](CO)[C@H](c3ccc(C#CC4CC4)cc3)[C@@H]2C1	-3.3	-45.6	34.6	-2.9
Cc1noc(C)c1NC(=O)N(C)C[C@H]1OCCCC[C@@H](C)Oc2ccc(NS(=O)(=O)c3ccc(Cl)cc3)cc2C(=O)N([C@@H](C)CO)C[C@H]1C	-0.6	-5.9	-1.3	-10.2
COCC(=O)N1CC(=O)N2[C@H](CO)[C@@H](c3ccc(-c4ccccc4)cc3)[C@H]2C1	1.2	-6.5	0.5	-3.4
COc1cccc(-c2ccc([C@@H]3[C@H]4CN(C(=O)CN5CCOCC5)CC(=O)N4[C@H]3CO)cc2)c1	0.4	7.0	-0.4	-2.1
O=C(c1ccc(F)cc1)N1CC(=O)N2[C@H](CO)[C@@H](c3ccc(C#CC4CCCCC4)cc3)[C@H]2C1	-1.2	-10.8	20.9	9.5
CCC(=O)N1CC2(C1)[C@H](c1ccccc1)[C@H](CO)N2C(=O)NC(C)C	3.6	4.1	0.6	-2.9
CC(C)CC#Cc1ccc([C@@H]2[C@@H](CO)N3C(=O)CN(C(=O)CN4CCOCC4)C[C@@H]23)cc1	1.9	2.7	0.6	-1.4
CC(=O)NC[C@@H]1[C@@H](c2ccc(C3=CCCC3)cc2)[C@@H](CO)N1C(=O)C1CCC1	-3.0	0.1	-0.5	-2.8
O=C(Cc1ccncc1)N1CC[C@@H]2[C@@H](CO)Nc3ccc(-c4cccc(F)c4)cc3[C@@H]21	1.5	-3.7	-2.9	7.6
CCNC(=O)[C@@H]1[C@@H](CO)[C@@H]2Cn3c(ccc(C4=CCCCC4)c3=O)[C@H]1N2C(=O)Cc1ccccn1	-0.4	-1.5	-3.5	-1.5
CCC(=O)N1CC(=O)N2[C@@H](CO)[C@H](c3ccc(C#Cc4cccc(OC)c4)cc3)[C@@H]2C1	-1.0	5.3	1.8	-0.7
CC(C)(C)[S@](=O)N1Cc2cc(C(=O)N3CCCCC3)nc(-c3cccc(Br)c3)c2[C@@H]1CCO	-1.2	15.2	1.3	-1.9
CO[C@@H]1CN(C)C(=O)c2ccc(NC(=O)Cc3ccccc3)cc2OC[C@H](C)N(C)C[C@H]1C	-1.5	-0.5	0.5	4.4
CC(=O)N1CC(=O)N2[C@H](CO)[C@@H](c3ccc(-c4ccccc4)cc3)[C@H]2C1	-3.9	2.5	-3.4	-1.6
CN(C)C(=O)c1ccc(-c2ccc([C@H]3[C@H]4CN(C(=O)C5CCCCC5)CC(=O)N4[C@H]3CO)cc2)cc1	1.8	13.6	-4.2	3.5
Cc1ccc(S(=O)(=O)N(C)C[C@@H]2OCCCC[C@@H](C)Oc3ccc(NC(=O)Cc4ccccc4)cc3C(=O)N([C@H](C)CO)C[C@@H]2C)cc1	3.7	-1.8	1.3	-4.4
CN(C)CC(=O)N[C@H]1CC[C@@H](CC(=O)O)O[C@@H]1CO	-2.8	0.0	-6.2	-1.8
O=C1CN(Cc2ccc(F)cc2)C[C@@H]2[C@@H](c3ccc(-c4ccccc4F)cc3)[C@H](CO)N12	-15.0	-25.8	24.6	-4.5
O=C(N[C@@H]1C=C[C@H](CC(=O)N2CCc3ccccc3C2)O[C@@H]1CO)C1CCOCC1	5.2	4.6	-1.4	-3.8
CN1C(=O)c2cc(NC(=O)C3CCC3)ccc2OC[C@H]2O[C@H](CC(=O)NCc3ccccc3F)CC[C@@H]21	1.7	0.0	-1.9	-3.5
CCNC(=O)[C@@H]1[C@@H](CO)[C@@H]2Cn3c(ccc(C4=CCCCC4)c3=O)[C@@H]2N1Cc1ccc2c(c1)OCO2	-4.6	-14.2	4.7	1.3
CCCN(C(=O)CSc1nnc(-c2ccncc2)n1CCC)c1c(N)n(Cc2ccccc2)c(=O)[nH]c1=O	11.4	17.1	2.2	1.3
C/C=C/c1ccc([C@@H]2[C@H](CO)N(C(=O)c3cnccn3)C23CN(C(=O)C2CC2)C3)cc1	-1.4	2.9	-1.1	1.1
CCS(=O)(=O)N1CC2(CN(C(=O)Cc3ccccn3)[C@H](CO)c3[nH]c4cc(OC)ccc4c32)C1	4.8	6.8	0.9	-2.5
CC(=O)N1CC(=O)N2[C@@H](CO)[C@H](c3ccc(-c4cccc(C(=O)N(C)C)c4)cc3)[C@@H]2C1	11.2	15.6	-0.1	-3.5
CC=Cc1ccc2n(c1=O)C[C@H]1[C@H](CO)[C@@H](C(=O)NCCN3CCCCC3)N(C(C)=O)[C@@H]21 (mixture of isomers)	0.6	12.9	-0.1	-3.4
N#Cc1ccc(-c2ccc(C3[C@@H]4CN(C(=O)Nc5ccc(C(F)(F)F)cc5)C[C@H]3N4)cc2)cc1 (some centres undefined)	-60.2&-58.5	-73.2&-74.2	-13.4&-14.9	11.4&-0.4
CCC(=O)Nc1ccc2c(c1)C(=O)N(C)[C@@H]1CC[C@@H](CC(=O)NCCc3ccncc3)O[C@@H]1CO2	0.9	-3.7	-1.2	-0.7
C[C@H](CO)N1C[C@H](C)[C@H](CN(C)C(=O)Nc2ccc(F)cc2)Oc2c(NC(=O)CCCCCC(=O)Nc3ccccc3N)cccc2C1=O	2.8	-2.8	0.6	1.4
O=C(C[C@@H]1C[C@H]2c3cc(NS(=O)(=O)c4ccc(F)cc4)ccc3O[C@H]2[C@@H](CO)O1)NCc1ccc(-c2ccccc2)cc1	-7.5	-27.0	35.0	0.3
COc1cccc(C#Cc2ccc([C@@H]3[C@H](CO)N4C(=O)CN(C(=O)c5ccncc5)C[C@@H]34)cc2)c1	0.1	-0.9	2.8	-1.6
O=C(C1CCCC1)N1C[C@@H]2N[C@H](C1)C2c1ccc(-c2cccc(F)c2)cc1 (some centres undefined)	-3.6&-41.1	-12.2&-69.7	-3.3&7.1	3.9&5.4
Cc1ccc(S(=O)(=O)Nc2ccc3c(c2)C(=O)N([C@H](C)CO)C[C@@H](C)[C@@H](CN(C)C(=O)c2ccccc2)OCCCC[C@@H](C)O3)cc1	3.3	-4.0	5.5	1.1
O=C(C[C@@H]1CC[C@H]2[C@@H](COC[C@H](O)CN2CC2CCCC2)O1)NCC1CC1	-0.5	12.3	0.8	-4.4
CC(C)(c1ccc(O)cc1)c1ccc(O)c(C(=O)O)c1	3.5	-1.7	-0.9	-3.1
C[C@H](CO)N1C[C@H](C)[C@H](CN(C)S(=O)(=O)c2cccs2)Oc2ccc(N(C)C)cc2C1=O	-1.9	0.8	0.0	3.8
CC(C)NC(=O)Nc1ccc2c(c1)CC(=O)N([C@@H](C)CO)C[C@H](C)[C@H](CN(C)Cc1ccccc1)O2	1.5	-2.3	-1.4	4.6
O=C(C[C@@H]1C[C@H]2c3cc(NS(=O)(=O)c4ccc(F)cc4)ccc3O[C@H]2[C@@H](CO)O1)NCc1cccnc1	0.6	0.9	-1.5	-0.8
C[C@@H]1CN([C@H](C)CO)C(=O)c2cc(NC(=O)Nc3ccc(F)cc3)ccc2O[C@@H](C)CCCCO[C@@H]1CN(C)S(=O)(=O)c1cn(C)cn1	-1.1	-5.1	0.5	-1.5

Whole records, looked up by structure. Order of screens: Ecoli rRNA inh | Ecoli rRNA inh OD600 | Ecoli rRNA inh RFP | AF4-AF9 inh
`Cc1ccc(S(=O)(=O)Nc2ccc3c(c2)C(=O)N([C@H](C)CO)C[C@@H](C)[C@@H](CN(C)C(=O)c2ccccc2)OCCCC[C@@H](C)O3)cc1` as listed: 3.3 | -4.0 | 5.5 | 1.1
`O=C(C1CCCC1)N1C[C@@H]2N[C@H](C1)C2c1ccc(-c2cccc(F)c2)cc1` (some centres undefined) as listed: -3.6&-41.1 | -12.2&-69.7 | -3.3&7.1 | 3.9&5.4

Assay outcomes (PubChem BioAssay)

A portion of the library. The share of hits here may be higher or lower than overall.
